Compound activity: PubChem, Broad Institute
Tgondii IFNg: T. gondii growth inhibition with IFN-gamma, primary screen, cell-based | Toxoplasma gondii growth in IFN-gamma-treated host cells; stronger effect = lower value; reference of the scale not given here | activity change, negative = inhibition, %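 (about 20 µM by stock and volumes)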 | 69,000 compounds, 3.8% hits;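 active means below -70%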;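 further: host cells are HeLa cells infected with Toxoplasma gondii; parasite growth read as luciferase light; one replicate is shown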
* hit, by the source's call; & = joins results of further samples; ! = not active in a repeat. Some of the compounds tested (hit frequency here may not be typical).

SMILES	Tgondii IFNg
COCCN1CCC(c2nc3ccc(-c4ccnn4C)cn3n2)CC1	-4
CO[C@@H](CN(C)CC1CCOCC1)[C@@H](C)CN(C(=O)Nc1ccc(F)cc1)[C@H](C)CO	5
O=C(C[C@H]1CC[C@@H]2[C@H](COC[C@H](O)CN2C(=O)c2ccc3c(c2)OCO3)O1)NC1CCC1	-29
O=C(c1ccco1)N1CCC2(CC1)CN(c1cccc(F)c1)C2=O	-6
Cc1ccc(S(=O)(=O)Nc2ccc3c(c2)C(=O)N([C@H](C)CO)C[C@H](C)[C@@H](CN(C)S(=O)(=O)c2cccs2)OCCCC[C@H](C)O3)cc1	-122*
COC(=O)c1cccc(NC(=O)c2cccc3[nH]cc(CN4CCCC4)c23)c1	16
C/C=C/c1ccc([C@@H]2[C@@H](CO)N3C(=O)CN(C(=O)Nc4ccc(F)cc4)C[C@H]23)cc1	-9
CCOc1ccc(S(=O)(=O)NCCc2sc(-c3ccc(Cl)cc3)nc2C)cc1	17
O=c1[nH]nc(SCc2ncc(C(F)(F)F)cc2Cl)n1-c1ccccc1	16
Cc1ccc(C2=NC3(CCN(CC(=O)Nc4cc(F)ccc4F)CC3)NC2=O)cc1C	92
CC(C)CC1N=C2c3ccccc3N=C(SCc3cc(=O)n4cc(Br)ccc4n3)N2C1=O (stereo not drawn)	-39
COc1cc2c(=O)oc(-c3cccnc3Oc3ccccc3)nc2c(OC)c1OC	22
Oc1c(I)cc(I)c2cccnc12	-76*!
Cc1c(C(=O)Nc2nc3c(s2)CCCC3)oc2ccccc12	-25
CSc1cccc(CN(C)Cc2c(CO)cnc(C)c2O)c1	2
O=C(NCCc1cnc[nH]1)c1nc(Nc2ccc(F)cc2)c2ccccc2n1	36
COc1cc2c(CCNC(C)=O)c[nH]c2cc1Cl	13&39
Cc1cccc(NC2COC3(CCN(S(=O)(=O)c4cn(C)cn4)C3)C2)c1 (stereo not drawn)	6
CCCN1C(=O)CCc2cc(NC(=O)c3cc4ccccc4[nH]3)ccc21	25
CC(C)C(=O)N1CCC(O)(Cn2cnc3ccccc3c2=O)CC1	9
CN1CC2(C)CN(C(=O)c3ccccc3NCC(=O)O)CC(C)(C1)C2O (stereo not drawn)	52
CC1=C(C(=O)N(C)CCCc2cnn(C)c2)C(c2cccnc2)NC(=O)N1 (stereo not drawn)	-11
O=C(c1ccccc1)N1CCC[C@@]2(C(=O)N3CCOCC3)CN(c3ccccn3)C[C@H]2C1	-49
O=C(COc1ccc(Cl)cc1Cl)N[C@H]1C[C@H]2C(=O)NCC(=O)N2C1	-17
Cc1ccc(CSc2nnc3c(n2)[nH]c2ccc(Br)cc23)cc1	-80*
Cc1cc2oc(C(=O)NCCNC(=O)c3ccccn3)cc(=O)c2cc1C	0
O=S1(=O)Cc2ccc(NS(=O)(=O)c3ccc(Br)s3)cc2C1	-1
COc1ccc2c3c([nH]c2c1)[C@@H](CO)NCC31CN(C(=O)Nc2ccc(F)cc2F)C1	306
COc1ccc(OC)c(NC(=O)N2CCC3(CC2)Nc2cc(OC)ccc2-n2cccc23)c1	389
CS(=O)(=O)N1CC2CN(C(=O)NCc3ccccc3)CC(C1)O2	20
Cc1cc(F)cc(-c2c(-c3ccccc3)ncn2CCCC(=O)N(C)C)c1	-17
COc1cccc(CNC(=O)c2cc3c(s2)CCN3C(=O)c2ccccc2)c1	-100*
Cc1ccc(-c2nc3cnccn3c2NCCC(=O)N2CCC(N3CCCCC3)CC2)cc1	20
Cn1cncc1CN1CC[C@@H]2OCCN(S(C)(=O)=O)[C@@H]2C1	-7
CCC1S/C(=N/C(=O)NC2CCCCC2)NC1=O (stereo not drawn)	101
COc1ccc(N(C)c2ccc3ccc(C(=O)N(C)Cc4ccccn4)cn23)cc1	-1
O=C(c1cnc2ccccn2c1=O)N1CCCC(Cn2cc(C3CC3)nn2)C1 (stereo not drawn)	0
O=C(NCCc1csc(-c2cccc(F)c2)n1)c1ccc(Cl)cc1	-60
Cc1oc(-c2ccc(C(=O)N3CCc4ccccc4C3)cc2)nc1CN1CCc2ccccc21	-39
CN(C)C(=O)COCC1CN(S(C)(=O)=O)Cc2nnn(C)c21 (stereo not drawn)	-53
c1ccc(C2CCCN2Cc2cnc(-c3cccs3)nc2)nc1 (stereo not drawn)	-54
O=C(c1cccc2ncccc12)N1CC2C[C@@H]3CC1C[C@H](C2)C3	-40
COc1ccc(-c2nnc(-c3nc(NCc4ccc5c(c4)OCO5)c4ccccc4n3)o2)cc1	111
COC(C)(C)CC(C)NCc1nncn1C1CCCCC1 (stereo not drawn)	2
CC(C)N(Cc1cnn(C)c1)C(=O)c1ccc(-n2cccc2)cc1	9
O=C(Nc1cnc2n1CCCC2)c1ccc(CSc2ncccn2)o1	-8
O=C1CO[C@H]2CN(c3ccccn3)C[C@@H]2N1	-7
COc1ccc(CNC(=O)c2nc(Nc3ccccc3)c3ccccc3n2)c(OC)c1	-54
CO[C@H]1CN(C)C(=O)c2ccc(NC(=O)Nc3ccccc3)cc2OC[C@H](C)N(C(=O)CC2CC2)C[C@H]1C	45
CCOc1ccccc1-c1ccccc1NC(=O)C1(C)CC(=O)N2C=CC=CC2=N1 (stereo not drawn)	-1
Cc1ccccc1C(C(=O)NCCc1nc2ccccc2[nH]1)N(C)C (stereo not drawn)	-3
CCOc1ccc(CC(=O)NCCc2csc(-c3ccc(C(F)(F)F)cc3)n2)cc1	160
Clc1cccc(CNc2ncnc3c2cnn3-c2ccccc2)c1	-6
CN1CCS(=O)(=O)[C@H]2CCN(C(=O)Nc3ccccc3)CC[C@@H]21	-2
Cc1ccc(C2(O)CCN(C(=O)c3c(C)c4cccc(C)c4n3C)CC2)nc1	-2
O=C(Nc1ncn[nH]1)c1sc2ccccc2c1Cl	11
COc1ccc(-c2cc(N)nc(N)n2)cc1	16
COCCn1cc2c(n1)C(CNC(=O)N(C)C)OCC2 (stereo not drawn)	-58
COc1ccc(-c2nc(C)c(CCNS(=O)(=O)c3ccc(OC)c(OC)c3)s2)cc1OC	28
CCCCOc1c(C(=O)c2c(F)cc(C)cc2F)cnc2n[nH]cc12	-92*
Next section
SMILES	Tgondii IFNg
C/C=C/c1ccc([C@H]2[C@H](CO)N3C(=O)CN(C(=O)NC4CCCCC4)C[C@@H]23)cc1	-12
CCS(=O)(=O)Nc1ccc(C(=O)N2CCC(COC)C2)cc1 (stereo not drawn)	17
O=C(NCC[C@@H]1CC[C@H](NC(=O)C2CCOCC2)[C@@H](CO)O1)c1cc(Cl)cc(Cl)c1	-39
COCC1CN(Cc2cc(C)on2)Cc2nnn(CC3CC3)c21 (stereo not drawn)	-5
O=C(C[C@@H]1CC[C@H]2[C@@H](COC[C@H](O)CN2C(=O)Nc2ccc(Cl)cc2)O1)NCC1CCCCC1	-60
COc1ccc2c3c([nH]c2c1)[C@H](CO)N(C(C)=O)CC31CCN(C(C)=O)CC1	248
COc1ccc(-n2nc(C(=O)O)nc2C)cc1	24
CN(C)CCN(Cc1cccs1)S(=O)(=O)c1ccc2[nH]c(=O)ccc2c1	361
Cc1ccsc1-c1nc(COc2ccc(N(C)S(C)(=O)=O)cc2)c(C)o1	1
COc1ccc(-c2nc(NCCCc3ccccc3)c3ccccc3n2)cc1	-50
COc1ccccc1CNC(=O)c1c(O)c2cccnc2n(-c2ccccc2)c1=O	-38
COCCc1noc(CN(C)C(=O)c2oc3cc(C)ccc3c2C)n1	3
CCCCOC1=CC=C(NC(=O)CSc2nnc(Cc3ccccc3)n2CC)CC1	-13
COc1ccccc1-c1cnc2c(c1)C(=O)N([C@H](C)CO)C[C@@H](C)[C@H](CN(C)C(=O)CC1CC1)O2	74
COc1cc(N2CCC3(CC(=O)N(Cc4csc(C)n4)C3)C2)ncn1 (stereo not drawn)	-1
CCn1c(CC2CCN(Cc3c[nH]c4c(C)cccc34)CC2)nn(C)c1=O	9
O=C(CCC1N=C2c3ccccc3N=C(SCc3cc(=O)n4ccccc4n3)N2C1=O)NCc1ccc(F)cc1 (stereo not drawn)	-28
Cc1cc(C)n(CC(C)NCC(=O)Nc2ccc(Cl)cc2F)n1 (stereo not drawn)	-1
COc1ccc(C(=O)NCCc2sc(-c3ccc(F)cc3)nc2C)cc1OC	-4
Cc1ccc(-c2nc(Cn3nnc(C(=O)NCc4ccccn4)c3C)c(C)o2)cc1	-58
Clc1ccc2c(N3CCN(CCCN4CCN(c5ccnc6cc(Cl)ccc56)CC4)CC3)ccnc2c1	3
COc1ccc(S(=O)(=O)N2CCc3c(ncnc3N(C)C)C2)c(OC)c1	3
Cc1cc(C(=O)NCC2COc3ccccc3O2)nn1C (stereo not drawn)	42
COc1ccc([C@@H](C)NC(=O)N2CCC(O)(c3ccc(C)cn3)CC2)cc1	-2
C[C@]12CCC(=O)C=C1[C@@H]1C[C@@H]1[C@H]1[C@@H]3[C@@H]4C[C@@H]4[C@@]4(CCC(=O)O4)[C@@]3(C)CC[C@@H]12	-85*
CCCNC(=O)N1CC2(CCN(C(=O)c3cccc(F)c3)CC2)c2c([nH]c3cc(OC)ccc23)[C@@H]1CO	-38
C=CCC1(O)C(=O)N2C(=C1C(=O)N1CCOCC1)c1ccccc1CC2(C)C (stereo not drawn)	-25
CCn1c(C2CCCN(C(=O)c3sccc3NC(C)=O)C2)nn(C)c1=O (stereo not drawn)	-4
O=C(O)c1ccc2c(c1)nnn2C1CCCCC1	30
Cc1ccc(S(=O)(=O)NCCc2csc(-c3ccc(Cl)cc3)n2)c(C)c1	18
O=C(c1ccccc1)N1CCCn2c(nc(CN3CCCC3)cc2=O)C1	-4
COc1cc(C)ccc1CN1CCc2onc(Nc3cccc(F)c3)c2C1	19
Cc1ccc(C)c(NC(=O)c2nc(Nc3ccccc3)c3ccccc3n2)c1	-61
Cc1ccc(C(=O)COC(=O)c2cnccn2)cc1[N+](=O)[O-]	7
O=C(Nc1ccccc1)OCCCCCOC(=O)Nc1ccccc1	-18
CCN(CC)C(=O)c1ccc(-n2ccnc2)c(-n2cccc2)c1	15
Cc1c(Br)c(C(F)(F)F)nn1CC(=O)O	88
COc1c(F)cc(C(=O)N2CCC(c3ccc(C(=O)O)cc3)C2)cc1F (stereo not drawn)	-2
CCCc1cnc(Oc2ncnc3cc(Cl)ccc23)nc1	-15
CC1(C)C(=O)N=C2c3ccccc3C(=O)C(=O)C21 (stereo not drawn)	-88*

Shown in markdown: part of the list above.
| smiles | Tgondii IFNg |
| --- | --- |
| C=CCC1(O)C(=O)N2C(=C1C(=O)N1CCOCC1)c1ccccc1CC2(C)C (stereo not drawn) | -25 |
| CCCc1cnc(Oc2ncnc3cc(Cl)ccc23)nc1 | -15 |

Additional records
SMILES	Tgondii IFNg
COc1cccc(CNC(=O)C2=C(C)C(=O)OC23CCN(S(=O)(=O)c2cccs2)CC3)c1	14
Cc1cnn(Cc2nc(-c3ccc(NC(=O)c4ccc(C(F)(F)F)cc4)cc3)oc2C)c1	-63
COc1ccccc1N(Cc1nc(-c2cccc(C)c2)oc1C)S(=O)(=O)c1ccc(C)cc1	2
COCCNC(=O)c1cc(N2CCCN(C)CC2)ccn1	-8
CN1[C@H](C(=O)N2CCc3ccccc3C2)[C@@H](CO)[C@@H]2Cn3c(ccc(-c4cccnc4)c3=O)[C@@H]21	2
CO[C@@H]1CN(C)C(=O)c2cc(NC(=O)CC(F)(F)F)ccc2OC[C@@H](C)N(CC2CC2)C[C@@H]1C	-25
CNc1ccccc1C(=O)N(C)C(C)c1ccc(OC)cc1 (stereo not drawn)	-1
O=C(C[C@H]1CC[C@@H]2[C@H](COC[C@H](O)CN2C(=O)c2cc(Cl)cc(Cl)c2)O1)N1CCc2ccccc2C1	-58
Cc1onc(-c2ccccc2)c1CNC(=O)Nc1csc2ccccc12	-98*
Cc1ccc(C(=O)C2CC(=O)NC(N3CCOCC3)=N2)cc1 (stereo not drawn)	-50
CCc1cn[nH]c1C1CCN(Cc2cn[nH]c2C(=O)O)CC1	2
CC(C)N1CCC(c2nnc3ccc(C(=O)N4CCCC4)cn23)C1 (stereo not drawn)	-7
O=C(Cn1ncc2c(N3CCCC3)ncnc21)Nc1ccc(OC(F)(F)F)cc1	0
CCC1=N[C@]2(CC[C@@H]3CN(c4ncc(C)cn4)C[C@H]32)C(=O)N1CC1CC1	3
CCC(C(=O)N1CC=CCC1)n1cc(C(C)=O)c2ccccc21 (stereo not drawn)	134
CC(=O)O[C@H]1CSC[C@H]1NC(=O)c1ccccc1	2
COc1cccc(C(=O)N(C)C2CCCN(C(=O)Cn3nnc4ccccc43)CC2)c1 (stereo not drawn)	2
OC[C@@H]1[C@@H](c2ccc(-c3cccc(F)c3)cc2)[C@@H]2CN(Cc3cncnc3)CCCCN12	-30
Cc1ccc2c(c1)c1c3n2CCCN(Cc2ccccc2)C3CCC1 (stereo not drawn)	14

By substructure, the entries above with a Cl atom
SMILES	Tgondii IFNg
CCOc1ccc(S(=O)(=O)NCCc2sc(-c3ccc(Cl)cc3)nc2C)cc1	17
O=c1[nH]nc(SCc2ncc(C(F)(F)F)cc2Cl)n1-c1ccccc1	16
COc1cc2c(CCNC(C)=O)c[nH]c2cc1Cl	13&39
O=C(COc1ccc(Cl)cc1Cl)N[C@H]1C[C@H]2C(=O)NCC(=O)N2C1	-17
O=C(NCCc1csc(-c2cccc(F)c2)n1)c1ccc(Cl)cc1	-60
Clc1cccc(CNc2ncnc3c2cnn3-c2ccccc2)c1	-6
O=C(Nc1ncn[nH]1)c1sc2ccccc2c1Cl	11
O=C(NCC[C@@H]1CC[C@H](NC(=O)C2CCOCC2)[C@@H](CO)O1)c1cc(Cl)cc(Cl)c1	-39
O=C(C[C@@H]1CC[C@H]2[C@@H](COC[C@H](O)CN2C(=O)Nc2ccc(Cl)cc2)O1)NCC1CCCCC1	-60
Cc1cc(C)n(CC(C)NCC(=O)Nc2ccc(Cl)cc2F)n1 (stereo not drawn)	-1
Clc1ccc2c(N3CCN(CCCN4CCN(c5ccnc6cc(Cl)ccc56)CC4)CC3)ccnc2c1	3
Cc1ccc(S(=O)(=O)NCCc2csc(-c3ccc(Cl)cc3)n2)c(C)c1	18
CCCc1cnc(Oc2ncnc3cc(Cl)ccc23)nc1	-15
O=C(C[C@H]1CC[C@@H]2[C@H](COC[C@H](O)CN2C(=O)c2cc(Cl)cc(Cl)c2)O1)N1CCc2ccccc2C1	-58
